Screening data deposited in PubChem by Broad Institute.
Tgondii IFNg: inhibitors of Toxoplasma gondii growth with IFN-gamma | Toxoplasma gondii growth in IFN-gamma-treated host cells; hits give low values; reference of the scale not given here | activity change, negative = inhibition, %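 (about 20 µM by stock and volumes)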 | 3.8% of 69,000 active | AID 1259416;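 active = below -70%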;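 note: host cells are HeLa cells infected with Toxoplasma gondii; parasite growth read as luciferase light; one replicate is shown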
* marks the source's active call; other numbers are inactive results; & = joins results of further samples. Not all compounds are listed; rates above refer to the full screens.

| mol | Tgondii IFNg |
| --- | --- |
| COc1cccc(-c2ccc([C@@H]3[C@@H](CO)N4CCCCN(C(=O)Cc5ccncc5)C[C@@H]34)cc2)c1 | -1.0 |
| Cc1ccc(NC2=NCCCS2)cc1 | 136.2 |
| FCCN1CCC2(CCCN(c3nncs3)C2)C1 (centres undefined) | 114.4 |
| C=CCN1CCOCC2(C1)CN(C(=O)c1ccnnc1)CCO2 (centres undefined) | -2.3 |
| COc1cccc(-c2ccc([C@H]3[C@H](CO)N4CCCCN(C(=O)Cc5ccncc5)C[C@@H]34)cc2)c1 | -21.2 |
| CC(C)c1nccc(C(=O)N2CCN3CCNC(=O)C3C2)n1 (centres undefined) | 7.8 |
| CCOC[C@H]1CCC[C@]12CN(Cc1c(C)noc1C)CCO2 | -24.8 |
| O=C(O)[C@@H]1[C@@H](CO)[C@@H]2Cn3c(ccc(-c4cccnc4)c3=O)[C@H]1N2C(=O)Nc1cc(F)ccc1F | 5.7 |
| CCc1ccccc1NC(=O)c1cc2cccnc2n(Cc2ccccc2)c1=O | 51.4 |
| CCN(CC)CCOC(=O)C(O)(c1ccccc1)c1ccccc1 | 8.4 |
| CC(C)N(C)CC1COC2(CNCCOC2)C1 (centres undefined) | -8.0 |
| FC(F)(F)c1cc(C2CCNCC2)n2ccnc2n1 | 12.8 |
| O=C(NCCN1CCOCC1)c1cc2cccnc2n(Cc2ccc(F)cc2)c1=O | 48.1 |
| Cc1ccc(CN2CC[C@H]3[C@@H]2CCN3C(=O)Cc2ccc(F)cc2)o1 | -21.4 |
| Cc1[nH]cnc1-c1nccn1CCc1cnc[nH]1 | 8.9 |
| c1cncc(CN2CCC3(C2)CN(Cc2ccsc2)C3)c1 | -1.4 |
| O=C(O)C1=CCCN(CCOC(c2ccc(C(F)(F)F)cc2)c2ccc(C(F)(F)F)cc2)C1 | 8.8 |
| Cc1ccc(C2=CC3CCC(C2)N3Cc2ccccc2)cc1 (centres undefined) | -29.3 |
| CC(C)c1ccc(NC(=O)c2cc3cccnc3n(Cc3ccc(F)cc3)c2=O)cc1 | 77.6 |
| COc1ccc(OC)c(NC(=O)c2cc3cccnc3n(Cc3ccc(F)cc3)c2=O)c1 | 5.1 |
| NC(=O)N1c2ccccc2[C@@H]2CNCC[C@@H]21 | -19.6 |
| COc1ccc(-c2ccccc2N2CCNCC2)c(OC)c1OC | 2.7 |
| CC(C)N1C2CCC1CN(c1ncccn1)C2 | 104.4 |
| CN1C[C@H]2[C@H](C(=O)N(C)Cc3ccccn3)CCS(=O)(=O)[C@H]2C1 | 2.6 |
| CCN1CCC2(CC1)CC(Nc1ncccn1)CO2 (centres undefined) | -2.4 |
| O=C(O)CN1C2CCC(C2)[C@@H]1C(=O)c1cccnc1 (some centres undefined) | 2.4 |
| Cc1cc(Br)ccc1NC(=O)c1cc2cccnc2n(Cc2ccccc2F)c1=O | 96.5 |
| c1ccc(CO[C@@H]2CC[C@@H]3[C@@H]2OCCN3Cc2ccsc2)nc1 | 5.6 |
| COCCN1CCOCC12CCN(c1cc(OC)ncn1)CC2 | -28.2 |
| CC1CCC[C@H](O)CCCCCc2cc(O)cc(O)c2C(=O)O1 (some centres undefined) | 39.8 |
| COCCCN1CCCCC12CC(=O)N(c1cncnc1)C2 (centres undefined) | 63.7 |
| C[C@H]1CN2C[C@H](O)CC2CN1Cc1cccn1-c1cccnc1 (some centres undefined) | -39.3 |
| OC[C@@H]1Nc2ccc(C#Cc3cccnc3)cc2[C@H]2NCC[C@@H]12 | 10.5 |
| CC(N)Cc1c[nH]c2ccc(O)cc12 (centres undefined) | 6.1 |
| CN1CCC2(CCCN(c3cnccn3)C2)CC1 | 5.8 |
| O=C(Nc1ccccc1)c1cc2cccnc2n(Cc2ccc(F)cc2)c1=O | 78.1 |
| C=CCO[C@@H]1C[C@@H]2CN(C(=O)c3ccncc3)CCN2C1 | 0.7 |
| Oc1ccc2c(c1)[C@@]13CCCC[C@@]1(O)[C@@H](C2)N(CC1CCC1)CC3 | 14.9 |
| COc1cc(C(=O)N[C@H]2c3ccccc3[C@@H]3CNC[C@H]32)ccn1 | -6.6 |
| Cc1c(Cl)cccc1NC(=O)c1cc2cccnc2n(Cc2ccccc2F)c1=O | 58.9 |
| Cc1ccc(CN2C[C@@H]3C(CN)[C@@H]3C2)cc1 (some centres undefined) | 16.4 |
| CO[C@H]1CCN(C(=O)c2ccc(C)cn2)[C@H]2CN(CC3CC3)C[C@@H]12 | 0.5 |
| Cc1ncc(CN2CCC3(CC(N(C)C)C3)C2)cn1 (centres undefined) | -26.1 |
| CCSc1nc(CC(=O)N2CCCCC2CN2CCOCC2)cs1 (centres undefined) | -1.7 |
| CC(Cc1ccccn1)N(C)Cc1ccsc1 (centres undefined) | 5.1 |
| COCCN1CC2(CCN(Cc3cc(C)on3)CC2)CC1COC (centres undefined) | -7.7 |
| C/C=C/c1ccc(C2[C@@H]3CN(C(=O)CN(C)C)C[C@H]2N3)cc1 (some centres undefined) | -17.4&-7.4 |
| Cc1cc(CN2CCC3(CCN(C)C3)CC2)no1 | -6.1 |
| Cc1noc(C)c1CN1CC2CC(C1)N(CCO)C2 (centres undefined) | -2.6 |
| CN(C)CCc1ccc(O)cc1 | 11.3&11.7 |
| Cc1ccc(CN2CCN3CC(OCc4cccnc4)CC3C2)s1 (centres undefined) | -4.1 |
| COc1ccccc1CCNC(=O)c1cc2cccnc2n(Cc2ccc(F)cc2)c1=O | -45.3 |
| COC(=O)[C@H]1[C@H](CO)[C@H]2Cn3c(cccc3=O)[C@@H]1N2CCc1ccccc1 | -5.6 |
| O=C(c1ccoc1)N1CC[C@@H]2OCCN(Cc3ccncc3)[C@@H]2C1 | 3.8 |
| N[C@]1(C(=O)O)CC[C@@H](C(=O)O)C1 (racemic) | 11.3 |
| CC(=O)C1CCC2C3CCC4CC(C)(O)CCC4(C)C3CCC12C (centres undefined) | 19.3 |
| C#CCOc1ccc(CN2C3CCC2CC(O)(c2ccc(OC)cc2)C3)cc1 (centres undefined) | -2.8 |
| COC(=O)[C@@H]1[C@@H](CO)[C@@H]2Cn3c(ccc(-c4ccc(F)cc4)c3=O)[C@H]1N2C(=O)c1ccccc1F | 4.6 |
| CCN1C[C@]2(OC(=O)c3ccccc3NC(C)=O)CC[C@@H](OC)[C@]34C1[C@@H](C[C@H]23)[C@@]1(O)C[C@H](OC)[C@H]2C[C@H]4[C@]1(O)[C@H]2OC | 25.7 |
| O=C1NC[C@H](COc2cccnc2)[C@]12CCN(Cc1cccs1)C2 | 6.6 |

The listing continues:
| mol | Tgondii IFNg |
| --- | --- |
| CCN1C[C@H]2[C@@H](OC)CCN(S(=O)(=O)c3cccnc3)[C@H]2C1 | 4.1 |
| CN(C(=O)Cc1ccc(Cl)c(Cl)c1)[C@H](CN1CCCC1)c1ccccc1 | -10.5&8.3 |
| O=c1ccc2cc(O[C@@H]3O[C@H](CO)[C@@H](O)[C@H](O)[C@@H]3O)c(O)cc2o1 | 5.5 |
| COCCN1CCN(Cc2csc(C)n2)Cc2cccnc21 | 0.7 |
| COCCNC(=O)C[C@H]1COC[C@H]2CN(Cc3ccncc3)C[C@@H]12 | -28.9 |
| CCNC(=O)C1OC(n2cnc3c(N)ncnc32)C(O)C1O (centres undefined) | 17.4 |
| O=C1CC(c2ccncc2)C2(CCNCC2)N1 (centres undefined) | 39.1 |
| COc1ccc2c(c1O)-c1c(OC)c(OC)cc3c1[C@H](C2)N(C)CC3 | 17.2 |
| Cc1cc(C(=O)N2CC[C@H]3[C@@H]2CCN3Cc2cccnc2)c(C)o1 | 16.9 |
| O=C1[C@H]2CCNC[C@H]2OCCN1c1ccccc1 | 3.8 |
| CCC(CO)NC1CC(C)N(C)CC1C (centres undefined) | -11.5 |
| CC(CC(C(N)=O)(c1ccccc1)c1ccccc1)N(C)C (centres undefined) | 10.3&20.2 |
| O=C(O)CN1CC2CC1CN(Cc1ccoc1)C2 (centres undefined) | 15.3 |
| COCCN1CCN(Cc2nccn2C)Cc2cccnc21 | -26.1 |
| c1ccc(-c2ncc(CN3CCC4(CCNCC4)C3)cn2)cc1 | -3.4 |
| Cc1cc(C)c(NC(=O)c2cc3cccnc3n(Cc3ccccc3F)c2=O)c(C)c1 | -83.3* |
| CN1CCC2(CC1)CN(C(=O)Cc1nnc(N)s1)CCCN2C | 3.4 |
| CCC(=O)N1C[C@@H]2CCN(Cc3c(C)noc3C)C[C@H]2C1 | -22.0 |
| CN1CCNC(=O)C12CCN(c1cccnc1)CC2 | 200.3 |
| Cn1nc(C(=O)Nc2cnc3n2CCCC3)c2ccccc21 | 4.0 |
| O=C(c1cscn1)N1CCC2(CN(Cc3cccnc3)C2)C1 | -0.7 |
| CCc1nc(C)cc(NCCC23CCCN2CCC3)n1 | -3.5 |
| CN(C)C(=O)Oc1cc(=O)n(C)c2ccccc12 | -21.1 |
| Cc1cccc(CN2CC[C@H]3[C@@H]2CCN3C(=O)NC2CCCC2)n1 | -44.3 |
| O=C(Oc1cccc2cccnc12)c1cccc(S(=O)(=O)N2CCCCCC2)c1 | 7.2 |
| CCc1ccc(CN2CCOC3CNCC[C@@H]32)o1 (some centres undefined) | -64.5 |
| CC1(C)C(=O)C=C[C@@]2(C)C1C(=O)C(=O)[C@]1(C)C2CC[C@@]2(C)[C@H](c3ccoc3)C[C@H]3O[C@]321 (some centres undefined) | -78.8* |
| CCN1C[C@H]2[C@H](OC)CCN(C(=O)Cc3cccc(OC)c3)[C@H]2C1 | -0.1 |
| c1cncc(C2CCCCN2)c1 (centres undefined) | 10.7&17.9 |
| OC(c1ccccc1)(c1ccccc1)c1cnc[nH]1 | -62.1 |

In the list so far, these have a thiophene ring, fused or not.
| mol | Tgondii IFNg |
| --- | --- |
| c1cncc(CN2CCC3(C2)CN(Cc2ccsc2)C3)c1 | -1.4 |
| c1ccc(CO[C@@H]2CC[C@@H]3[C@@H]2OCCN3Cc2ccsc2)nc1 | 5.6 |
| CC(Cc1ccccn1)N(C)Cc1ccsc1 (centres undefined) | 5.1 |
| Cc1ccc(CN2CCN3CC(OCc4cccnc4)CC3C2)s1 (centres undefined) | -4.1 |
| O=C1NC[C@H](COc2cccnc2)[C@]12CCN(Cc1cccs1)C2 | 6.6 |

Next section:
| mol | Tgondii IFNg |
| --- | --- |
| COc1ccc(CNCCc2ccc(F)cc2)cc1OC | 6.6 |
| O=C(c1cscn1)N1CCN2C[C@H](OCc3ccccn3)C[C@@H]2C1 | -1.5 |
| O=C(O)[C@H]1[C@H](CO)[C@H]2Cn3c(ccc(C4=CCCCC4)c3=O)[C@@H]1N2C(=O)Cc1ccccn1 | 4.2 |
| CC(=O)CC(c1ccccc1)c1c(OC(C)=O)c2ccccc2oc1=O (centres undefined) | -17.8 |
| c1ccc(CN2C[C@H]3OCCN(CC4CCCO4)[C@H]3C2)nc1 (some centres undefined) | 37.6 |
| CN1C(=O)CN=C(c2ccccc2)c2cc(Cl)ccc21 | -1.8 |
| Cc1noc(C)c1CN1CC[C@H]2CN(C(=O)CC(C)C)C[C@@H]2C1 | 131.8 |
| Cc1ccc(S(=O)(=O)N2CCCC2c2cccnc2)cc1 (centres undefined) | 7.6 |
| CN(C)C(=O)[C@@H]1CC[C@H]2[C@H](CCN2CC2CC2)O1 | -5.3 |
| O=C(NCc1ccccc1F)c1c(O)c2cccnc2n(Cc2ccccc2)c1=O | -111.9* |
| COc1ccccc1CN(CCN(C)C)C(=O)Cc1c(C)[nH]c(=O)[nH]c1=O | -12.0 |
| COc1ccc(/C=C/C(=O)C2C(=O)N(C)C3(C)CC2c2cc(Br)ccc2O3)cc1OC (centres undefined) | -60.1 |
| Cn1cccc1C(=O)N1C[C@H]2CN(Cc3cccnc3)C[C@H]2C1 | -5.6 |
| O=C(Nc1ccc(F)cc1)c1cc2cccnc2n(Cc2ccc(Cl)cc2)c1=O | 136.5 |
| c1cncc(O[C@H]2CN(Cc3cccs3)[C@H]3CCCO[C@@H]23)c1 | 1.6 |
| C=CCOCc1cncc2c1CCN(CC1CCOCC1)C2 | -4.9 |
| COc1cccc(CC(C)NCc2csc(C)n2)c1 (centres undefined) | 0.6 |
| NC(=O)CN1C[C@H](O)CC1=O | -54.0 |
| Cc1nc(CN2CCOCC23CCNCC3)cs1 | 9.4 |
| CN1C(=O)C2(CCN(Cc3cc4n(n3)CCNC4)CC2)c2ccccc21 | -2.6 |
| O=C(Nc1cc(F)ccc1F)c1cc2cccnc2n(Cc2ccccc2)c1=O | 38.2 |
| COCC(=O)N1CC[C@@]2(CN(C)C[C@H]2COCc2cccnc2)C1 | -2.5 |
| CNCCc1cnc[nH]1 | 21.4 |
| COc1ccccc1CCNC(=O)c1cc2cccnc2n(Cc2ccccc2F)c1=O | 30.2 |
| COc1cc(/C=C2\C(=O)NC(=O)N(c3ccccc3)C2=O)c([N+](=O)[O-])cc1OC | 13.3 |
| Cn1cccc1CN1CC2(CCN(c3ncccn3)C2)C1 | -46.0 |
| C/C=C/c1ccc([C@H]2[C@@H](CO)N3CCCCN(C(=O)Cc4cccnc4)C[C@H]23)cc1 | 17.4 |
| CNC(=O)[C@H]1CC2CN(C(=O)Cc3cccs3)CC2N1C(C)C (some centres undefined) | -5.1 |
| O=C1CN=C(c2ccccc2F)c2cc(Cl)ccc2N1 | 32.2 |
| COc1ccc(CNC(=O)/C=C/c2ccc3[nH]cc(CCN(C)C)c3c2)cc1 | 13.8 |
| C=C1C[C@@H]2[C@H](CC[C@]3(C)C(=O)CC[C@@H]23)[C@@]2(C)C=CC(=O)C=C12 | 43.7 |
| NC(=O)c1ccccc1NC(=O)c1cc2cccnc2n(Cc2ccccc2F)c1=O | -8.7 |
| CC(C)Cc1ccc(C2NCCc3[nH]cnc32)s1 (centres undefined) | -0.2 |
| CC(C)N1C[C@@H]2OCC[C@@H]2[C@H](C(=O)NCc2cccnc2)C1 | -4.2 |
| CN1CCC2(COCc3cnc(NCc4ccco4)nc32)C1 (centres undefined) | -59.4 |
| CN1C2C[C@H](OC(=O)[C@H](CO)c3ccccc3)C[C@H]1[C@@H](O)C2 | 6.1 |
| O=C1[C@H]2CN(Cc3ccco3)C[C@H]2CN1c1cncnc1 | -13.8 |
| CN1CCC2(CCCN(C(=O)c3ccoc3)C2)CC1 | 13.0 |
| CO[C@@H]1CCN(C(=O)c2cc(C)on2)[C@H]2CN(CC3CC3)C[C@@H]12 | -11.0 |
| Cc1noc(C)c1CN1CC2CNC(C2)C1 (centres undefined) | -0.4 |
